Bm FixLJ act = B. multivorans fixK reporter activation; B. multivorans fixK-promoter GFP reporter, 18 h; stronger effect = higher value; z-score (no concentration beside the values); actives 0.3% (n = 29,000); AID 1918990;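 active means replicate mean overnight rise in green fluorescent reporter signal, 3 or more SD over negative controls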;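 further: score is relative to vehicle wells of the plate; 300 nL library stock went into each well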
Starred values were filed as active, the others as inactive; & = joins results of further samples. These rows are one share of the data; count on the stated rates, not on these rows.

canonical_smiles | Bm FixLJ act
CCc1ccc(NC(=O)CN(c2ccc(C)cc2)S(=O)(=O)c2c(C)nn(C)c2C)cc1 | -4.82
O=C(NCCc1ccccc1)c1cc2sccc2n1Cc1ccc(F)cc1 | 1.12
O=C(c1ccccn1)C1CCCN(C(=O)c2ccncc2Cl)C1 (configuration not stated) | -1.99
CN(Cc1ccc(-n2cccn2)cc1)C(=O)Cn1nnnc1N | -0.3
CCN(CC)c1cc(C)c2cc(NC(=O)/C=C/c3ccccc3OC(C)C)ccc2n1 | 0.66
COc1ccc(-n2nc3ccc(NC(=O)c4cc5ccccc5o4)cc3n2)cc1Cl | 0.77
COCCCN1CC2COC[C@]2(C(=O)NCc2ccccc2-n2cccn2)C1 (some centres not stated) | -0.95
CCCc1nn2c(=O)cc(COc3ccc(/C=C(\C#N)C(=O)Nc4ccccc4)cc3)nc2s1 | 0.47

Some of the entries so far, as labelled records:
structure: CCc1ccc(NC(=O)CN(c2ccc(C)cc2)S(=O)(=O)c2c(C)nn(C)c2C)cc1
  Bm FixLJ act: -4.82

structure: O=C(NCCc1ccccc1)c1cc2sccc2n1Cc1ccc(F)cc1
  Bm FixLJ act: 1.12

structure: O=C(c1ccccn1)C1CCCN(C(=O)c2ccncc2Cl)C1 (configuration not stated)
  Bm FixLJ act: -1.99

structure: CN(Cc1ccc(-n2cccn2)cc1)C(=O)Cn1nnnc1N
  Bm FixLJ act: -0.3

Continuation.
canonical_smiles | Bm FixLJ act
Fc1ccc(-n2nc(-c3ccccc3)nc2CC2CNCCO2)cc1 (configuration not stated) | -1.06
COc1ccc(OC)c(CCNc2nc3ccccc3c3nc(-c4cccnc4)nn23)c1 | 0.53
Cn1c(=O)c2c(nc(NCCc3ccccc3)n2Cc2ccc(Cl)c(Cl)c2)n(C)c1=O | -1.22
CCCCCOc1ccc(/C=C/C(=O)Nc2sc(C(C)=O)c(C)c2C(=O)OCC)cc1OC | 0.12
O=S(=O)(c1ccc(Br)cc1)c1nc(-c2cccs2)oc1SCc1ccccc1F | -0.99
COC(=O)CN1C(C(=O)c2ccccc2)=C(OC(=O)c2ccc(F)cc2)c2ccccc2S1(=O)=O | 1.56
O=C(CSc1ncc(-c2ccccc2)[nH]1)Nc1ccccc1 | -0.66
Cc1cccn2c(=O)c(C(=O)NC(C)c3ccccc3)c(O)nc12 (configuration not stated) | 0.23
COc1ccc(-c2nc(SCC(=O)NC3CCCC3)c(-c3ccc(F)cc3)[nH]2)cc1OC | -1.09
O=C(c1ccc2c(c1)N(Cc1ccccc1)C(=O)c1ccccc1S2(=O)=O)N1CCCCCC1 | -0.74
O=C(Nc1ccccc1C(F)(F)F)c1ccc2oc(=O)c(S(=O)(=O)c3ccc(F)cc3)cc2c1 | -0.67
CN1CCN2c3ccccc3Cc3ccccc3C2C1 (configuration not stated) | -0.33&0.13
CC1=C(c2ccc(C)c(C)c2)S(=O)(=O)N=C1N1CCC(C(=O)NC(C)Cc2ccco2)CC1 (configuration not stated) | -1.03
Cc1ccc(OCCn2cc(C(=O)c3ccco3)c3ccccc32)cc1C | 0.52
CCOc1ccc(CNCc2c(C(=O)O)c(C)n(Cc3ccc(C)cc3)c2C)cc1 | -1
Cc1ccc(-n2nc(C(=O)NCCc3cccc(C)c3)c3c4ccccc4n(C)c3c2=O)cc1 | -0.04
Cc1ccccc1-c1nnn(CC(=O)Nc2sc3c(c2C#N)CCC(C(C)(C)C)C3)n1 (configuration not stated) | -2.69
Cc1ccc(C)c(NC(=O)C2CCCN2S(=O)(=O)c2ccc3c(c2)n(C)c(=O)c(=O)n3C)c1 (configuration not stated) | 0.52
O=C1CC2(CCCC2)CC(=O)N1CCCCN1CCN(c2ncccn2)CC1 | -0.68&0.32
O=C(NCc1cc(Cl)ccc1Cl)NCC(O)CN1CCCC1 (configuration not stated) | 0.27
COc1ccc(CN2CCC(O)C(C(=O)O)C2)cc1OCc1ccccc1 (configuration not stated) | -1.08
O=C(O)CCc1ccc(-c2ccc(Cl)cc2)n1-c1cccc(C(F)(F)F)c1 | -1.52
CSCCC(NC(C)=O)C(=O)N1CCC2(CC1)C(=O)N(C)c1ccccc12 (configuration not stated) | -1.97
CCN(CC)CCOC(=O)C1(C2CCCCC2)CCCCC1 | -2.08

Grouped by structure: those above with a CF3 group.
canonical_smiles | Bm FixLJ act
O=C(Nc1ccccc1C(F)(F)F)c1ccc2oc(=O)c(S(=O)(=O)c3ccc(F)cc3)cc2c1 | -0.67
O=C(O)CCc1ccc(-c2ccc(Cl)cc2)n1-c1cccc(C(F)(F)F)c1 | -1.52

Remaining list, next part
canonical_smiles | Bm FixLJ act
O=C(CCN1CCN(CC2CC2)C(CCO)C1)Nc1cccc2ccccc12 (configuration not stated) | -1.34
CCCCCCN1CC2(CCN(C(=O)c3c[nH]c(C)cc3=O)CC2)OC1=O | -1.11
CNC(=O)CC1CCN(C(=O)c2ccc(C)n2C(F)F)CC1 | -2.03
O=C(NCc1noc(Cc2cccs2)n1)c1ccc2cccc(Cl)c2n1 | -1.23
COc1cc2ccccc2cc1C(=O)Nc1cccc(-c2nc3cc(C)c(C)cc3o2)c1C | -0.27
COc1ccc(Cc2nc3ccccc3n2Cc2ccccc2F)cc1 | -2.77
COc1ccc(NC(=O)Cn2ncc3c(C)n(Cc4cccc(Cl)c4)c(C)c3c2=O)cc1 | -1.97
Cc1cc(C)cc(Nc2nnc(-n3nc(C)cc3C)c3ccccc23)c1 | -1.17
Cc1cc(-c2cc(S(=O)(=O)N3CCN(C(=O)c4ccco4)CC3)c(C)s2)n[nH]1 | -0.2
COc1ccc(NC(=O)c2cc3nc(-c4ccc(Cl)c(Cl)c4)cc(C(F)(F)F)n3n2)c(OC)c1 | -0.9
COc1cc(C(=O)NC2COCC2Cc2ccncc2)ccc1C (configuration not stated) | 0.02
COC(=O)c1c(NC(=O)C2c3ccccc3Oc3ccccc32)sc2c1CCC(C(C)(C)C)C2 (configuration not stated) | -0.92
O=C(Nc1cccc(Cl)c1)c1cnc[nH]1 | -0.78
CCC(C)NC(=O)CSCc1nc(-c2ccc(C)cc2)oc1C (configuration not stated) | -1.5
CC(C)C[C@H](NC(=O)[C@@H](Cc1c[nH]c2ccccc12)NC(=O)[C@H](Cc1ccc(O)cc1)NC(=O)[C@H](CO)NC(=O)[C@H](Cc1c[nH]c2ccccc12)NC(=O)[C@H](Cc1cnc[nH]1)NC(=O)[C@@H]1CCC(=O)N1)C(=O)N[C@@H](CCCN=C(N)N)C(=O)N1CCC[C@H]1C(=O)NCC(N)=O | -2.29
NC(=O)C1CC=CCC1NC(=O)c1ccc(SCCO)cc1 (configuration not stated) | 0.03
CC1CCN(C(=O)c2cc(-c3cccc(Cl)c3)on2)CC1 | -1.09
CCC(=O)N(CCC(c1ccccc1)c1ccc2c(c1)OCO2)Cc1ccc(OC(C)C)cc1 (configuration not stated) | 0.01
COc1cc(OC)c(NC(=O)c2csc3c2CCC(C)C3)cc1Cl (configuration not stated) | 1.28
CCCOc1ccc(CN2CCn3nc(CNC(C)=O)cc3C2)cc1 | -1.19
Cc1ccc(C)c(Cn2nc(C)n3c(cc4cc(C)ccc43)c2=O)c1 | -2.21
Cc1ccc(NC(=O)c2c(C(=O)Nc3ccccc3)sc3nc(C)cc(=O)n23)c(C)c1 | -6.74
CC(C)S(=O)(=O)c1oc(-c2ccc(F)cc2)nc1S(=O)(=O)c1ccc(F)cc1 | -3.54
CCCC(C)N1CC2(CCN(C(=O)c3cccc(C)c3O)CC2)OC1=O (configuration not stated) | -0.37
CCOc1ncccc1CNC(=O)C1CSC(C)(C)C(=O)N1 (configuration not stated) | -1.9
COc1cccc(CNC(=O)C(CC(C)C)NS(=O)(=O)c2ccc3c(c2)oc(=O)n3C)c1 (configuration not stated) | 0.73
O=C(NCc1ccc2c(c1)OCO2)c1ccc2c(c1)N(Cc1c(F)cccc1Cl)C(=O)c1ccccc1S2 | -0.39
CN(CCCN1CCCCCC1)c1cc(C2CC(N)C2)nc(N)n1 (configuration not stated) | 0.77
COc1ccc(C(=O)NCc2nnc(SCC(=O)Nc3ccccc3)n2-c2ccc(F)cc2)cc1 | -1.56
CCOC(=O)c1oc2ccc(S(=O)(=O)n3nc(-c4cc(OC)cc(OC)c4)cc3N)cc2c1C | 1
CCOC(=O)N1CCC(NC(=O)c2ccc3c(c2)N(Cc2ccc(F)cc2)C(=O)c2ccccc2S3=O)CC1 (configuration not stated) | -1.52
Cc1ncsc1C(=O)N1CCCN(C(=O)Cc2cccs2)CC1 | -1.38
CC(C)C(NC(=O)N(C)Cc1ccccc1CN1CCCC1)c1nccn1C (configuration not stated) | -1.72
O=C(c1cccc(Cl)c1)n1nc(-c2cccnc2)nc1NCc1ccccc1 | -0.96
Oc1ccccc1-c1nc(/C=C/c2ccc(F)cc2)nn1-c1ccccc1 | 2.35
O=C1c2oc3ccccc3c(=O)c2C(c2cccc(O)c2)N1c1nncs1 (configuration not stated) | -1.12
CCCn1nc(C)c(CNC(=O)c2cc3n(n2)CCNC3)c1C | -0.03
CCCCCCCCNC(C)C(O)c1ccc(SC(C)C)cc1 (configuration not stated) | -2.36
CCN(CCCNC(=O)c1cc2c(=O)n(C)c3ccccc3c2s1)Cc1ccccc1 | -1.22
COc1ccc2[nH]cc(CCNC(=O)Cn3nc(C)cc3N)c2c1 | -2.72
Cc1ccc(NC(=O)Cc2coc3ccc(C(C)C)cc23)cc1Cl | -1.65
Cc1ccc(C)c(NC(=O)C2CCN(S(=O)(=O)c3c(C)noc3/C=C/c3cccs3)CC2)c1 | -1.91
COc1ccc(OCC(=O)N2CCN(C(=O)c3ccc(OC)c(OC)c3)CC2)cc1 | -0.94
Cc1cc(CC2CN(C(=O)c3ccccc3OC(F)F)CC2O)n[nH]1 (configuration not stated) | -1.51
CC1=C(C(=O)Nc2ccc(C)cc2C)C(CC(C)C)n2nc(SCc3ccccc3C)nc2N1 (configuration not stated) | -1.94
COc1cccc2c1cc1c(=O)n(CC(=O)N3CCCCC3)nc(C)n12 | -0.14
COc1ccc(F)c(-c2nc(CN3CCN4C(=O)CNC(=O)C4C3)c(C)o2)c1 (configuration not stated) | -0.4
Cc1cc(C(=O)NC2CCCCNC2=O)c2ccc(C)c(C)c2n1 (configuration not stated) | -0.55

Structures above with a cyano group, in the order listed:
canonical_smiles | Bm FixLJ act
CCCc1nn2c(=O)cc(COc3ccc(/C=C(\C#N)C(=O)Nc4ccccc4)cc3)nc2s1 | 0.47
Cc1ccccc1-c1nnn(CC(=O)Nc2sc3c(c2C#N)CCC(C(C)(C)C)C3)n1 (configuration not stated) | -2.69

The results go on:
canonical_smiles | Bm FixLJ act
Cc1ccc(Cl)cc1N1CCN(C(=O)Cn2cnc3sc(C)c(S(=O)(=O)N4CCC(C)CC4)c3c2=O)CC1 | -0.74
Cc1ccc(CN2CCC3(CC2)c2nc[nH]c2CCN3C(=O)C2CCC2)cc1 | -0.36
CCCn1cc(C(=O)N2CCC3(CC2)OCCc2c3[nH]c3ccccc23)c(C)n1 | 0.54
CN(C)c1ccc(CN(CC2CCCO2)C(=O)COc2ccccc2Cl)cc1 (configuration not stated) | -0.96
Cn1ccnc1C(=O)N1CCCN(C(=O)Cc2cccc(F)c2F)CC1 | -1.07
COc1ccc(Nc2c3c(nc4ccc(NC(=O)c5cc(Cl)ccc5OC)cc24)CCCC3)cc1OC | 1.46
O=C(c1cnc(-c2ccccn2)nc1)N1CC(O)C(Cc2ccncc2)C1 (configuration not stated) | 1.66
O=C1[C@@H]2CSC(c3ccc(C(F)(F)F)cc3)N2C(=O)N1c1ccccc1 (some centres not stated) | 0.15
COc1ccc(C)cc1NC(=O)N1CCCN(C(=O)C2CCOC2)CC1 (configuration not stated) | 1.07
CCOC(=O)c1c(C)c(-c2ccccc2)n(CC(=O)NC(CC)Cc2ccccc2)c1C (configuration not stated) | 0.6
CC(C)c1ccc(NC(=O)c2cn(C3CCCC3)c(=O)c3c2c2ccccc2n3C)cc1 | 0.18
Cc1c(Cl)cccc1NC(=O)c1cc(-c2ccc3c(c2)OCO3)on1 | -1.17
CCOc1ccc(CCNC(=O)CN2C(=O)COc3ccc(S(=O)(=O)N4CCCC4)cc32)cc1 | -0.22
O=C(CN1CC(c2ccccc2)CC1=O)N1CCC(c2nc3ccc(F)cc3[nH]2)CC1 (configuration not stated) | -1.08
Cc1cccc(CN2C(=O)c3ccccc3S(=O)(=O)c3ccc(C(=O)N4CCCC4)cc32)c1 | -0.25
COCCC(=O)NC(c1cnc2ccccc2c1)C1CC(O)C1 (configuration not stated) | -0.17
CC(=O)Nc1ccc(S(=O)(=O)N2CCC(Oc3ccc(-n4cnnn4)cc3)CC2)cc1 | 1.5
Cc1ccccc1S(=O)(=O)Cc1ccc(C(=O)NC2CCC(C)CC2)o1 (configuration not stated) | -1.24
CC(C)COc1ccc(C2=NC(c3ccncc3)=Nc3ccc(F)cc3N2)cc1 | 1.09
COc1cccc(-c2cc(C(F)(F)F)nc(NCc3ccc(F)cc3)n2)c1 | 0.04
Cc1c(CNC(=O)c2ccc(CCC(C)(C)O)cc2)cnn1C | -1.31
CCN(CC)c1ccc(C2Nc3ccccc3-c3cc(C)nn32)cc1 (configuration not stated) | -0.51
COc1ccc(C2C=C(c3ccc(F)cc3)Nc3nc(-c4ccc(Cl)cc4)nn32)cc1 (configuration not stated) | 1.06
COc1cccc(S(=O)(=O)N2CCN(Cc3ccc4c(c3)OCO4)CC2)c1 | -3.65
O=C(NCc1cc2cc(Cl)ccc2[nH]1)C1CC2(CCNCC2)CN1 (configuration not stated) | -1.15
COCCCn1c(=N)c(C(=O)NCc2ccco2)cc2c(=O)n3ccccc3nc21 | -0.62
CCC(=O)N1N=C(c2ccc(OC)cc2)CC1c1cn(-c2ccccc2)nc1-c1cccs1 (configuration not stated) | 1.07

From PubChem BioAssay
